Screening data from PubChem BioAssay.
CSC inhib: cancer stem cell viability inhibitors, primary screen, luminescence. inhibition, % at 7.5 µM. actives 1.1% (n = 300,000). AID 2717, 2010. cancer stem cell-like cells viability;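 active = mean at 75% or more and at least half the replicates too; inconclusive = mean and replicates disagree; tested in HMLE shEcad cells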;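 note: 0% = median of negative and 100% = median of positive control wells; the first replicate is given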
UUG fidelity: modulators of yeast start codon fidelity, primary screen, whole organism, S. cerevisiae, single point, plate reader; S. cerevisiae UUG-firefly luciferase reporter, luminescence/redox ratio; AID 602363, 2012; activity score, % at 18.7 µM; actives 0.13% (n = 350,000);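 active = replicate mean at a twofold rise or more, about +100% in these data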;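 note: firefly luciferase made from a UUG start codon reports start codon fidelity; reporter light over untreated wells divided by growth signal over untreated wells; some hits fall short of that in this replicate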
HIV Env fusion: inhibitors of HIV-1 Env-driven cell-cell fusion, primary screen, HeLa-JRFL effector, CEM21 target cells, luciferase | actives 1.1% (n = 360,000) | AID 651610, 2012 | inhibition, % at 12.3 µM;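 active = mean replicate inhibition score of at least 50 and every replicate individually at or above 50; inconclusive = only one of the two criteria met; inactive = mean below 50 and not all replicates reaching 50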;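 note: 0% = plate neutral controls and 100% = maraviroc near 300 nM; one replicate is shown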
Rce1 inhib: yeast Rce1p protease inhibitors, primary screen, biochemical, fluorescence, cell-free homogeneous. CAAX prenyl protease 2 (Saccharomyces cerevisiae (strain ATCC 204508 / S288c)), Q03530. yeast membranes, quenched prenylated peptide cleavage fluorescence. calls only. actives 0.27% (n = 290,000);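 active = fall in fluorescence gain of 50% or more versus controls, with final raw signal at or below 3038400; inconclusive = same 50% fall but final raw signal above 3038400; inactive = fall in fluorescence gain under 50%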;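 note: plate controls were neutral control wells for no effect and wells lacking membranes for full effect; tested at 10 µM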
Target sequence (Q03530 whole entry, looked up): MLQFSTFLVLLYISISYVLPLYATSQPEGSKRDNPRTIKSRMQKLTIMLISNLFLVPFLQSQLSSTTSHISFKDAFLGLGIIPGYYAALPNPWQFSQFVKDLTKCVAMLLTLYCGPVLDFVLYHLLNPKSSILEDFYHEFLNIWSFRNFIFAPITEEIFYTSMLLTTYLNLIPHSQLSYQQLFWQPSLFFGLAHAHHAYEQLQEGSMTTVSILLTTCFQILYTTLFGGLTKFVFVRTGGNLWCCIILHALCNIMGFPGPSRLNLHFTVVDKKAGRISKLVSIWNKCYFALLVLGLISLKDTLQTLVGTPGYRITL
eIF4H FP inh: human eIF4H binding inhibitors, primary screen, translation initiation inhibitor project, biochemical, uHTS, fluorescence polarization. Eukaryotic translation initiation factor 4H (Homo sapiens), Q15056. eIF4H fluorescence polarization binding assay. inhibition, % at 35 µM. actives 0.94% (n = 290,000);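 active = 50% or more with normal probe brightness, or confirmed in later tests; inconclusive = above 50% with abnormal brightness, or retests that disagree; inactive = below 50% or failed in later tests; about a fifth of its hits are not listed in these tables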;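 note: calls also rest on retests at 20 µM and on dose response follow-up; 0% = protein and probe with vehicle and 100% = probe without protein; strong numbers were not always called active; many hits fall short of the cut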
PABP FP inh: PABP poly(A) RNA binding inhibitors, primary screen, biochemical, fluorescence polarization, uHTS | AID 2014, 2009 | actives 1% (n = 290,000) | inhibition, % at 35 µM | Polyadenylate-binding protein 1 (Homo sapiens), P11940;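 active = 50% or more with normal probe brightness, or confirmed in later tests; inconclusive = above 50% with abnormal brightness, or retests that disagree; inactive = below 50% or failed in later tests; about a fifth of its hits are not listed in these tables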;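 note: calls also rest on retests at 20 µM and on dose response follow-up; controls were probe without protein and protein plus probe with vehicle; some compounds called inactive have numbers as strong as hits; many hits fall short of the cut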
Target sequence (P11940 whole entry, looked up): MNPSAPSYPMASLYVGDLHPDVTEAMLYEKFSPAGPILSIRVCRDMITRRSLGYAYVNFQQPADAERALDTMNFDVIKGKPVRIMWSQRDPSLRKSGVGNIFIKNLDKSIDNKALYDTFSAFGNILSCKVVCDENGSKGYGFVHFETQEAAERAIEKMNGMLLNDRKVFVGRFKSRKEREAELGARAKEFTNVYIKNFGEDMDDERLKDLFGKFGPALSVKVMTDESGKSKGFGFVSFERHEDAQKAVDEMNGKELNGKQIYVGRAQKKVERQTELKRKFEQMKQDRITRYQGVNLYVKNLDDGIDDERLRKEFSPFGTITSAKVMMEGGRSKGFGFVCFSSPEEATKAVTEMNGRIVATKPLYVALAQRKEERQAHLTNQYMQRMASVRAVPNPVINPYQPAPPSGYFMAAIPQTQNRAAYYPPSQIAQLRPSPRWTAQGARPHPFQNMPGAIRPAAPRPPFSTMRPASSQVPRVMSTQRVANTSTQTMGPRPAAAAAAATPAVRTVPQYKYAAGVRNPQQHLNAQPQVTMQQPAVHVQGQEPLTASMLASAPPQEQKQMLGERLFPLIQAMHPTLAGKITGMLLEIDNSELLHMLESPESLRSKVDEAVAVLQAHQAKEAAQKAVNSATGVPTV
MT1-MMP act inh: blockers of MT1-MMP proenzyme processing, primary screen, HT1080 RFP-PRO-GFP cells, GFP/RFP fluorescence | AID 651647, 2012 | actives 0.061% (n = 360,000) | GFP/RFP ratio fluorescence, overnight; percent of plate control window, DMSO zero | Matrix metalloproteinase-14 (Homo sapiens), P50281 | GFP/RFP ratio change, % at 20 µM;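 active = GFP/RFP ratio change of at least 30% with cell ATP level not reduced by more than half and red fluorescence within 50% of control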; note: strong numbers were not always called active
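Compound: 20 µM single dose, 1% DMSO / System: HT1080 RFP-PRO-GFP cells / Controls: DMSO and RFP-L50D-GFP cell wells / Read-out basis: GFP/RFP fluorescence ratio / Schedule: overnight compound exposure at 37 °C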
MT1-MMP act inh RFP: further read-out of MT1-MMP act inh, marked with its call; RFP signal change, %; measured here: RFP expression control read;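 0 = vehicle wells; hits needed this value within 50% of zero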
* = called active by the depositor; i = inactive; ? = inconclusive; / = not tested or not shown.

1	COc1ccccc1N1CCN(C(=O)c2ccc(Br)o2)CC1
2	O=C(O)C1CCN(C(=O)c2ccc3c(c2)OCO3)CC1
3	Cc1ccc(-c2nc(CSCC(=O)N3CCOCC3)c(C)o2)cc1
4	CCN(C(=O)COc1cccnc1[N+](=O)[O-])C1CCS(=O)(=O)C1 (centres undefined)
5	CCOc1ccc(C(=O)OCC(=O)Nc2cccnc2Cl)cc1OCC
6	CCOC(=O)c1ccc(NC(=S)N(CCCN2CCN(C)CC2)Cc2cccs2)cc1
screen / no.	1	2	3	4	5	6
CSC inhib	-1	4	-1	4	-13	10
UUG fidelity	2	-5	/	-25	12	-15
HIV Env fusion	/	-3	28	-7	-1	-2
Rce1 inhib	/	i	i	i	/	i
eIF4H FP inh	/	-3	-8	-7	/	11
PABP FP inh	/	0	-8	-8	/	2
MT1-MMP act inh	-1	0	5	4	2	1
MT1-MMP act inh RFP	-1	5	-4	11	2	2

7	COCCCN(C(=O)CSCc1ccc(C)cc1)c1c(N)n(Cc2ccccc2)c(=O)[nH]c1=O
8	Cc1ccc(SCCC(=O)Nc2ccccc2C(=O)NC2CCCCC2)cc1
9	Cc1cc(N2CCOCC2)nc2ccc(NC(=S)N3CCCCC3C)cc12 (centres undefined)
10	O=C(N/N=C/c1ccccc1O)c1ccncc1
11	COc1ccc(Nc2nc(N3CCCC3)nc(N3CCCC3)n2)c(OC)c1
12	Cc1ccc(OCc2ccc(C(=O)N3CCCC3)o2)cc1C
screen / no.	7	8	9	10	11	12
CSC inhib	2	-9	36	2	29	-2
UUG fidelity	-23	/	143*	-18	-19	-7
HIV Env fusion	4	4	25	32	-22	-9
Rce1 inhib	i	i	i	i	i	i
eIF4H FP inh	/	-10	-6	/	-2	2
PABP FP inh	/	0	-2	/	-6	0
MT1-MMP act inh	1	-4	4	-2	5	1
MT1-MMP act inh RFP	3	1	2	0	-5	-2

13	O=C(COC(=O)CCOc1ccccc1)NCCc1ccccc1
14	Cc1ccc(C(c2nnnn2C(C)(C)C)N(Cc2ccco2)Cc2cccs2)cc1 (centres undefined)
15	CN(C(=S)NC(=O)c1ccc(F)cc1)C1CCCCC1
16	Cc1ccccc1NC(=O)CCCn1nc(C)c2c(C)n(-c3ccccc3)nc2c1=O
17	CN(Cc1ccccc1)c1nc2c(c(=O)[nH]c(=O)n2C)n1C
18	OCCN1CCN(c2cc(C(F)(F)F)nc3ccccc23)CC1
screen / no.	13	14	15	16	17	18
CSC inhib	2	2	4	2	-9	-3
UUG fidelity	-10	1	-25	-6	-8	-3
HIV Env fusion	1	/	-21	7	/	-2
Rce1 inhib	i	i	/	i	i	i
eIF4H FP inh	/	-8	-10	5	7	-8
PABP FP inh	/	-2	-16	8	25	-5
MT1-MMP act inh	1	0	4	0	9	-2
MT1-MMP act inh RFP	-2	-14	-1	-2	1	-1

An excerpt of these results, with values under each structure:
The line under a structure holds: CSC inhib	UUG fidelity	HIV Env fusion	Rce1 inhib	eIF4H FP inh	PABP FP inh	MT1-MMP act inh	MT1-MMP act inh RFP
14: Cc1ccc(C(c2nnnn2C(C)(C)C)N(Cc2ccco2)Cc2cccs2)cc1 (centres undefined)
 : 2	1	/	i	-8	-2	0	-14
18: OCCN1CCN(c2cc(C(F)(F)F)nc3ccccc23)CC1
 : -3	-3	-2	i	-8	-5	-2	-1

Continuation.
19	COc1cccc(OCc2ccc(Cl)cc2)c1C#N
20	COc1cccc(C(=O)O/N=C(\N)c2ccc([N+](=O)[O-])cc2)c1OC
21	CCOc1ccccc1/C=C/C(=O)NCC(=O)N1CCC(N(C)C2CCCCC2C)CC1 (centres undefined)
22	Cn1cccc1/C=N/NC(=O)CSc1nc2ccccc2[nH]1
23	CCc1ccccc1N(C(=O)c1cccs1)C1C=CS(=O)(=O)C1 (centres undefined)
24	COc1ccc(C(=O)OCC(=O)Nc2ccc3[nH]c(=O)[nH]c3c2)cc1
screen / no.	19	20	21	22	23	24
CSC inhib	31	-10	-1	-5	-4	10
UUG fidelity	/	-13	24	-26	3	13
HIV Env fusion	i	/	13	-246	3	-5
Rce1 inhib	i	i	i	i	i	i
eIF4H FP inh	-5	-8	/	1	-2	/
PABP FP inh	-2	10	/	-2	-10	/
MT1-MMP act inh	1	0	4	0	4	-9
MT1-MMP act inh RFP	0	0	6	0	2	-4

25	CCC(C(=O)NC1CCCC1)N(C(=O)Cn1nnc(-c2ccc(C)o2)n1)c1ccc(OC)c(OC)c1 (centres undefined)
26	CCOc1ccc(N(CC(=O)Nc2ccccc2C(=O)N2CCOCC2)S(=O)(=O)c2ccc(F)cc2)cc1
27	COc1ccc2c(c1)CCc1c(C(=O)N3CCOCC3)noc1-2
28	Cc1ccc(NC(=O)COC(=O)CCc2nc3ccccc3n2-c2ccccc2)c(C)c1
29	O=C(CCN1CCN(CCO)CC1)Nc1ccc(OCc2ccccc2)cc1
30	COc1ccccc1CN1C(=O)[C@@H]2C(CC(N)=O)NC3(C(=O)Nc4c3ccc(Cl)c4C)[C@@H]2C1=O (some centres undefined)
screen / no.	25	26	27	28	29	30
CSC inhib	/	-3	3	-10	55	-9
UUG fidelity	-8	/	-15	/	9	-12
HIV Env fusion	2	-9	/	-16	-42	-108
Rce1 inhib	i	i	i	i	i	i
eIF4H FP inh	6	-6	1	-4	3	-2
PABP FP inh	-1	-9	18	4	7	0
MT1-MMP act inh	2	4	3	0	2	-3
MT1-MMP act inh RFP	0	3	-8	3	2	1

31	O=C(/C=C/NCc1cccnc1)c1ccc(-c2ccccc2)cc1
32	CCN(CC)C(=O)c1sc(NC(=O)c2cccnc2)c(C(=O)OC)c1C
33	Cc1ccc(NC(=S)NNC(=S)Nc2ccc(C)cc2C)cc1
34	COc1ccc(N2CCN(C(=O)C(CCSC)N=C3NS(=O)(=O)c4ccccc43)CC2)cc1 (centres undefined)
35	O=C(CSc1ccccn1)c1ccc(F)cc1
36	CCOC(=O)c1ccc2c(c1)NCc1cccc(OC)c1O2
screen / no.	31	32	33	34	35	36
CSC inhib	3	-8	4	-4	-10	3
UUG fidelity	-19	15	-19	7	-9	-14
HIV Env fusion	-5	12	-265	-68	/	-35
Rce1 inhib	i	i	i	i	i	i
eIF4H FP inh	-6	-8	9	-1	-2	14
PABP FP inh	3	-9	0	3	10	19
MT1-MMP act inh	1	-6	-1	-15	-1	-6
MT1-MMP act inh RFP	-8	1	-11	0	3	-5

37	COC(=O)CSc1nc2ccc(C)cc2cc1C#N
38	CC1=CC(C)(C)N(C(=O)c2ccccc2)c2ccccc21
39	CN(C)Cc1nc2ccccc2c(=O)n1Cc1nc(-c2cc3ccccc3o2)cs1
40	CN(C)N1C(N)=C(C#N)C(c2ccc(F)cc2)C2=C1CC(C)(C)CC2=O (centres undefined)
41	COc1cc(CN2CCCC(C(=O)c3ccccc3SC)C2)cc(OC)c1 (centres undefined)
42	NCCOc1ccccc1OCCN
screen / no.	37	38	39	40	41	42
CSC inhib	-17	2	34	1	19	3
UUG fidelity	/	-18	-12	-16	-3	-2
HIV Env fusion	-124	9	-24	-1	-9	-6
Rce1 inhib	i	i	i	i	i	i
eIF4H FP inh	6	-10	-12	-6	1	-4
PABP FP inh	?	0	-1	-1	0	2
MT1-MMP act inh	-21	-1	-2	-3	1	-1
MT1-MMP act inh RFP	-1	0	0	-1	4	6

43	Cc1ccc(/C=N/NC(=O)Cn2nc(C)c([N+](=O)[O-])c2C)o1
44	COC(=O)Cc1ccc(NC(=S)NCc2ccc(OC)cc2)cc1
45	Cc1ccc(CN2CC(C(=O)N3CCN(S(=O)(=O)c4ccc(C(C)C)cc4)CC3)CC2=O)cc1 (centres undefined)
46	CCc1ccc(OCc2nc(-c3ccccn3)no2)c(Br)c1
47	CC(=O)N(/N=C1\Sc2ccccc2C1=O)c1ccc(C)cc1C
48	Cc1cccc(S(=O)(=O)Nc2cccc3c2C(=O)c2ccccc2-3)c1
screen / no.	43	44	45	46	47	48
CSC inhib	2	-5	-9	18	-2	29
UUG fidelity	/	-27	3	-55	/	-10
HIV Env fusion	5	14	15	/	/	11
Rce1 inhib	i	i	i	i	i	i
eIF4H FP inh	-8	4	/	1	13	-11
PABP FP inh	-6	-9	/	-9	8	-10
MT1-MMP act inh	3	2	0	1	15	-79
MT1-MMP act inh RFP	-1	4	-7	-2	28	-3

49	Cc1ccc(S(=O)(=O)NCCC(=O)Nc2cc(S(=O)(=O)N(C)C)ccc2C)cc1C
50	Cc1cc(=O)[nH]c(Nc2ccc(N(C)C)cc2)n1
51	COc1ccc(-c2sc3ccccc3c2/C=C/c2ccc(OC)c(OC)c2)cc1
52	Cc1c(N2C(=O)/C(=C3/C(=O)N(C)c4ccccc43)SC2=S)c(=O)n(-c2ccccc2)n1C
53	CCc1nnc(NC(=O)CSc2nc(C)cc(C)c2C#N)s1
54	COc1ccc(NC(=O)CSc2nc3ccsc3c(=O)n2CCC(=O)O)cc1
screen / no.	49	50	51	52	53	54
CSC inhib	-11	-26	/	-11	-2	/
UUG fidelity	-10	-11	-26	-12	-26	-19
HIV Env fusion	2	2	13	/	-34	60*
Rce1 inhib	i	i	/	i	i	/
eIF4H FP inh	-8	-1	/	4	-14	/
PABP FP inh	-7	-4	/	1	-2	/
MT1-MMP act inh	-1	-2	-3	4	-1	1
MT1-MMP act inh RFP	-1	1	0	0	-4	7

55	COc1ccc(C(=O)Nc2ccccc2C(=O)N/N=C/c2ccccc2OC)cc1
56	O=C(CCS(=O)(=O)c1ccccc1)Nc1nc(-c2cccs2)cs1
57	Cn1c(=O)c2c(ncn2CC(=O)Nc2ccc(N3CCOCC3)cc2)n(C)c1=O
58	O=C(c1ccccc1[N+](=O)[O-])N1CCN(c2ccc(N3CCOCC3)nn2)CC1
59	CN1C[C@@H]2C(c3ccccc3)C3(c4ccccc4)CC2(C3)[C@H]1c1ccccc1 (some centres undefined)
60	O=C(NCCc1ccc2c(c1)OCCO2)c1cccc(S(=O)(=O)N2CCCC2)c1
screen / no.	55	56	57	58	59	60
CSC inhib	-19	27	-18	-4	-8	/
UUG fidelity	-69	-11	-14	-21	-13	-10
HIV Env fusion	-491	28	-45	-3	17	3
Rce1 inhib	/	i	i	i	i	/
eIF4H FP inh	-3	12	-12	/	9	/
PABP FP inh	-6	26	3	/	3	/
MT1-MMP act inh	2	-6	-1	1	0	3
MT1-MMP act inh RFP	3	-8	4	0	-3	2

61	c1ccc(CCn2nnnc2C(c2cccnc2)N2CCN(c3ccccc3)CC2)cc1 (centres undefined)
62	c1ccc(SCCOCCN2CCc3ccccc3C2)cc1
63	O=C(OCC(=O)N1CCCC1=O)C1CCN(S(=O)(=O)c2ccc(Cl)c(C(F)(F)F)c2)CC1
64	CCN(C(=O)COC(=O)c1cc(-c2ccc3cc(OC)ccc3c2)nc2ccccc12)C1CCS(=O)(=O)C1 (centres undefined)
65	Cc1cc(NC(=O)CSc2nnnn2-c2cc(Cl)ccc2C)no1
66	O=c1cc(C(F)(F)F)[nH]c(=O)n1C1CCCCC1
screen / no.	61	62	63	64	65	66
CSC inhib	16	54	/	28	-21	-2
UUG fidelity	0	/	-15	/	-10	-28
HIV Env fusion	/	9	-5	/	-8	-54
Rce1 inhib	i	i	/	i	i	i
eIF4H FP inh	1	2	/	-1	1	2
PABP FP inh	-1	-1	/	29	2	-16
MT1-MMP act inh	8	0	-3	/	0	0
MT1-MMP act inh RFP	-2	4	4	/	-2	4
